Compound activity deposited in PubChem BioAssay by several laboratories.
Insulin prom inh – TRM-6 insulin promoter activity inhibition; TRM-6 cells (human fetal islet line), insulin promoter-eGFP reporter, imaging; reporter expression induced with tamoxifen; inhibition, % at 2 µM; hit rate 0.9% among 130,000;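 active = inhibition above the mean plus 3 SD, with well images judged a real hit on visual review, cut at about 60% in these data, passing the limit was not always enough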
PKD1 inh – blocks activity of human protein kinase D1. PKD1 kinase fluorescence polarization assay. inhibition, %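 (about 10 µM by stock and volumes)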. hit rate 0.056% among 200,000. AID 797;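 active = inhibition of 50% or more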;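 note: controls were vehicle for no effect and a reference inhibitor for full effect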
Target sequence (Q15139 whole entry, looked up): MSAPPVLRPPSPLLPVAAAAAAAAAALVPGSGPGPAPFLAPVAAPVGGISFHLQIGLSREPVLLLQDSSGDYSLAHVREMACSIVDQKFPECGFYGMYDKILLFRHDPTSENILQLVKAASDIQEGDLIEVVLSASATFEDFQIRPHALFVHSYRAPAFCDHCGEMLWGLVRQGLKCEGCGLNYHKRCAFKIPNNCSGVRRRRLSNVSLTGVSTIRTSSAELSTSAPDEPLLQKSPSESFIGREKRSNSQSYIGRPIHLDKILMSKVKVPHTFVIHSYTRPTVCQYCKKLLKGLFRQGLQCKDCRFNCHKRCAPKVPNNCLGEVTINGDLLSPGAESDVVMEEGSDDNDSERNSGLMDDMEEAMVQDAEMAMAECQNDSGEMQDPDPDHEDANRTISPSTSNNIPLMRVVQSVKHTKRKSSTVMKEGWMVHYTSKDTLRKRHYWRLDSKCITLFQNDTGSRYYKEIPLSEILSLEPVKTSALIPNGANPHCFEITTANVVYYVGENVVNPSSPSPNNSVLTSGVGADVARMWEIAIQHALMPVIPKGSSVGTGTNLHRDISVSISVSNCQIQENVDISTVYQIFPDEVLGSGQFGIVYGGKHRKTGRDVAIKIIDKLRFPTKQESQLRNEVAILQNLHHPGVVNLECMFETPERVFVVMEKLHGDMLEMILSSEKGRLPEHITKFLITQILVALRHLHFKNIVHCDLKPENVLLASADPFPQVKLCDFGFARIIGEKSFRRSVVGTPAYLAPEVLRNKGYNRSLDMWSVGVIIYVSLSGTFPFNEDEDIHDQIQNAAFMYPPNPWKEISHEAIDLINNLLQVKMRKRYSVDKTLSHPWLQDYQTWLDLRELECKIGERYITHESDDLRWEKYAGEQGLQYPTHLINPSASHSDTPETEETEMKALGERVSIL
HSV replic up – HSV replication enhancement; AID 1956; maximum fold increase; hit rate 0.005% among 220,000; HSV replication augmentation in cells, fold increase;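 active = peak rise of 1.5-fold or more in the series; tested in PC3 cells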;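 note: first round at 10 µM; read as green reporter fluorescence; hits show the peak of a series up to 25 µM; 1 = signal of infected wells without compound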
GALR2 agonist – GALR2 (human) receptor agonism | hit rate 0.48% among 140,000 | activation, %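 (tested at 5 µM)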 | AID 803 | O43603 | GALR2-expressing cells, agonist activation read-out;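 active = above mean plus 3 SD of all compounds, about 5% in these data, not always enough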;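 note: 0% = vehicle buffer wells and 100% = reference agonist at full effect; tested in CHO reporter cells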
RGS16-Gao HTS – regulators of human RGS16-Galphao interaction; O15492+P09471; bead-based flow cytometry RGS16-Galphao binding, fluorescence; actives lie on both sides; binding response (% of control), % at 10 µM; hit rate 0.38% among 220,000; AID 1441;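 active = below 25% or above 175%, edge rows of some plates excepted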;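 note: Galphao activated by GDP with aluminum fluoride before binding; 100% = wells without compound and 0% = beads without RGS; some results beyond the cut were filed as inactive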
Insulin prom inh cell count – second read-out of Insulin prom inh, no call of its own (marks repeat the call); normalized cell count, %; measured here: cell count, toxicity; reference of the scale not given here;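 cells exposed to compound for 48 h; stained nuclei by imaging scaled within each plate; lower means fewer cells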
HSV replic up primary fold – further read-out of HSV replic up, marked with its call; fold increase; compound at 10 µM; measured here: primary screen fold increase 10 uM; tested in PC3 cells;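 GFP signal in the first replicate; 1 = infected wells without compound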
Active calls of the source: *; i = inactive; . = no result given. An unsorted share of the library; about 1.1% have a hit in one of these screens.

SMILES	Insulin prom inh	Insulin prom inh cell count	PKD1 inh	HSV replic up	HSV replic up primary fold	GALR2 agonist	RGS16-Gao HTS
CCOC(=O)C1=C(N)n2c(s/c(=C\c3cccnc3)c2=O)=C(C(=O)OC)C1c1cccnc1 (stereo unspecified)	-136	131	-3	i	0.97	-1.4	.
O=C(CSc1ccc2ccccc2c1)Nc1ncccn1	-12	112	-8	i	0.89	-2.0	99
Nc1ccc2nc(CCc3ccccc3)[nH]c2c1	.	.	1	.	.	-1.8	100
O=C(O)c1ccccc1/C=N/NC(=S)NCc1ccccc1	.	.	.	i	0.97	.	99
Oc1cccc(-c2nc3ccc4ccccc4c3c3c2CCC3)c1	-21	129	-2	i	0.72	-1.4	101
CCn1cc(/C=N\NC(=O)COc2cccc(C)c2C)c(C)n1	58	88	1	.	.	-1.7	66
CCc1ccc(N(CC(=O)NCc2ccc(F)cc2)C(=O)c2csnn2)cc1	-22	200	-8	i	0.97	.	102
CSc1c(CC(=O)Nc2ccccc2)n(Cc2ccccc2)c2ccccc12	.	.	0	i	0.9	0.2	103
CCC(C)NC(=O)c1ccccc1NC(=O)CN(c1cc(C)ccc1OC)S(C)(=O)=O (stereo unspecified)	.	.	-2	i	0.94	.	100
Nc1c(-c2ccccc2)c(CN2CCOCC2)nn1-c1ccc(C(=O)O)cc1	9	146	-11	i	0.87	0.1	115
Cc1nn(Cc2c(Cl)cccc2Cl)c(C)c1NC(=O)/C=C/c1cnn(C)c1C	.	.	6	i	0.74	-0.7	105
Cc1cc(C)cc(C(=O)N2CCN=C2c2ccccc2)c1	-19	111	6	i	1	-0.1	104
CCOc1ccccc1/C=C/c1cc(C(=O)O)c2ccccc2n1	.	.	.	i	1.1	.	99
CN1CCN(C(=O)CN(c2cc(C(F)(F)F)ccc2Cl)S(C)(=O)=O)CC1	-11	77	1	i	1.1	-0.8	111
CC(C)CC(c1nnnn1Cc1ccc2c(c1)OCO2)N1CCC(C(N)=O)CC1 (stereo unspecified)	.	.	-3	i	0.97	.	102
O=C(NCc1cccnc1)c1ccccc1[N+](=O)[O-]	-30	119	-15	i	1.1	0.0	97
CCOC(=O)c1c(NC(=O)c2cccs2)sc2c1CCCC2	-7	85	7	i	0.99	-1.1	99
O=C(COC(=O)Cc1cccc(C(F)(F)F)c1)Nc1cccc2ccccc12	.	.	1	i	0.91	-1.1	98
CN(C)c1ccc(CN(C(=O)COc2ccccc2)C2CCS(=O)(=O)C2)cc1 (stereo unspecified)	7	77	-10	i	1.1	-3.3	102
CC(C)CCn1c(Cl)nc2c1c(=O)n(C)c(=O)n2C	23	63	4	i	0.98	-0.4	72

Sorted by count of non-hydrogen atoms (low to high): part of the list above.
SMILES	Insulin prom inh	Insulin prom inh cell count	PKD1 inh	HSV replic up	HSV replic up primary fold	GALR2 agonist	RGS16-Gao HTS
CC(C)CCn1c(Cl)nc2c1c(=O)n(C)c(=O)n2C	23	63	4	i	0.98	-0.4	72
Cc1cc(C)cc(C(=O)N2CCN=C2c2ccccc2)c1	-19	111	6	i	1	-0.1	104
CCOC(=O)c1c(NC(=O)c2cccs2)sc2c1CCCC2	-7	85	7	i	0.99	-1.1	99
CCOc1ccccc1/C=C/c1cc(C(=O)O)c2ccccc2n1	.	.	.	i	1.1	.	99
CN1CCN(C(=O)CN(c2cc(C(F)(F)F)ccc2Cl)S(C)(=O)=O)CC1	-11	77	1	i	1.1	-0.8	111
O=C(COC(=O)Cc1cccc(C(F)(F)F)c1)Nc1cccc2ccccc12	.	.	1	i	0.91	-1.1	98
CC(C)CC(c1nnnn1Cc1ccc2c(c1)OCO2)N1CCC(C(N)=O)CC1 (stereo unspecified)	.	.	-3	i	0.97	.	102

(cont.)
SMILES	Insulin prom inh	Insulin prom inh cell count	PKD1 inh	HSV replic up	HSV replic up primary fold	GALR2 agonist	RGS16-Gao HTS
Cc1ccc(/C=N/n2c(=O)c(C(C)(C)C)nn3cnnc23)cc1	.	.	6	i	0.97	0.0	107
CC(=O)CSc1nnc(-c2ccc3c(c2)OCO3)o1	3	113	-1	i	0.79	-3.9	46
Cc1ccc2cc(C#N)c(SCC(=O)Nc3ccc4sc(C)nc4c3)nc2c1	-12	146	-5	.	.	-3.5	96
CCc1ccccc1Nc1nc(N)nc(CSc2nnnn2C)n1	50	116	-1	.	.	.	101
CCOc1oc(-c2ccc(OC)cc2)nc1C(F)(F)F	-50	157	-1	i	0.94	-1.1	97
O=C(NCc1cccnc1)C(=O)N/N=C/c1ccccc1[N+](=O)[O-]	.	.	-9	i	1.1	.	102
O=C1NC(=O)C2C1C(c1cccs1)NN2Cc1ccccc1 (stereo unspecified)	.	.	-6	i	1.1	.	98
O=C(NNc1nc2ccccc2nc1C(F)(F)F)c1ccccc1	-4	69	6	i	1.1	-2.3	97
CN(C)c1ccnc(-n2cccc2/C=N/OCc2ccccc2)c1C#N	-3	118	-4	i	1.1	0.1	107
O=C(Nc1ccc2nc(-c3ccccc3)[nH]c2c1)c1ccco1	18	140	-1	i	0.85	3.7	102
COc1cc(C(=O)NC(=S)N2CCCCCC2)cc(OC)c1OC	36	33	-2	i	0.98	.	112
CCCCSc1nc2c(cnn2-c2ccc(F)cc2)c(=O)[nH]1	.	.	-3	i	0.64	-0.9	105
C=CCNC(=O)C1CCN(c2cnccn2)CC1	.	.	-7	i	0.97	.	103
Cc1cc(Nc2ccccc2)n(-c2nc3ccccc3[nH]2)n1	.	.	5	i	0.78	-1.6	91
C/C=C\C=C/C(=O)Nc1cccc(C2=NOC3(C2)C[C@@H](C(N)=O)N(C(=O)/C=C/CC)C3)c1 (stereo partly specified)	.	.	.	i	0.73	.	100
COc1ccc(CNc2nc3ccccc3n2Cc2ccccc2)cc1OC	-45	108	-1	i	0.98	-1.4	101
C=CCn1c(SCC(=O)Nc2ncc(Cc3ccc(C)c(Cl)c3)s2)nnc1-c1ccncc1	20	160	-6	i	0.95	-1.7	80
Cc1ccc(C(=O)OC2CCOC2=O)cc1NC(=O)c1ccco1 (stereo unspecified)	.	.	0	i	1	-1.3	102
CCN(CC)CCNC(=O)C1CCC(=O)N1CCc1ccccc1 (stereo unspecified)	-85	131	-9	i	0.99	-0.4	103
CCOC(=O)/C=C1\SCC(=O)N1CC(=O)Nc1ccc2c(c1)CCC2	.	.	-3	i	0.93	-0.8	103
CCc1cccc(NC(=O)c2ccc(Cn3c(=O)[nH]c4ccsc4c3=O)cc2)c1	32	62	-1	.	.	-0.6	46
N=C1C(c2nc3ccccc3s2)=C(O)CN1NC(=O)c1ccco1	.	.	.	i	1	.	97
CS(=O)(=O)NCc1nnc(SCc2ccc(C(F)(F)F)cc2)o1	.	.	.	i	1.1	.	100
CCN1C(=O)C2(C(C#N)=C(N)Oc3c2c(C)nn3-c2ccccc2)c2ccccc21 (stereo unspecified)	6	90	-19	i	0.94	-2.3	106
COc1cc(CN2CCN(c3ccc(C)cc3)CC2)cc([N+](=O)[O-])c1O	16	113	4	i	1	0.1	105
C[C@H]1C=C(C(=O)NCc2ccccc2)O[C@@H](OCc2ccc(CO)cc2)C1	.	.	3	.	.	.	102
Cc1ccc(C)c(S(=O)(=O)N2CCN(CC(=O)Nc3sccc3C#N)CC2)c1	18	74	-7	i	0.91	0.9	103
CC1CCN(C(=O)c2ccccc2NC(=O)c2cccc(S(=O)(=O)N3CCOCC3)c2)CC1	.	.	0	i	0.91	-0.3	109
C=CCSC1=N/C(=C\c2cccnc2)C(=O)N1c1ccc(OC)cc1	-7	64	5	i	0.93	0.2	37
CSc1nc2c(c(=O)[nH]1)CCCC2	50	94	0	i	0.95	-4.3	101
N#Cc1c(C(F)(F)F)cc(=O)[nH]c1SCC(=O)O	.	.	2	i	0.71	.	97
CCn1ccc(C(=O)NC2C(=O)N3C(C(=O)O)=C(C)CSC23)n1 (stereo unspecified)	25	66	6	i	0.87	-3.4	96
COC(=O)C(NC(C)=O)(Nc1nc(C)cs1)C(F)(F)F (stereo unspecified)	-5	122	-3	i	1	-1.1	104
CC(NC(=O)CCc1nnc(Cc2cccc(C(F)(F)F)c2)o1)C1CC1 (stereo unspecified)	.	.	4	i	0.93	.	116
CCOc1cc(/C=N/NC(=O)c2cc(C3CC3)[nH]n2)ccc1O	14	66	0	i	0.96	.	97
CC(=O)Oc1ccc(/C=C2/Oc3ccccc3C2=O)cc1	.	.	.	i	1	.	95
Cc1ccccc1OCC(O)CN1CCN(CC(O)COc2ccccc2C)CC1 (stereo unspecified)	-35	46	-6	i	0.86	.	102
CCOc1cc(C(C#N)N2CCCCC2)ccc1OC (stereo unspecified)	33	70	-5	i	1	-3.5	99
NNc1nc2c(Cl)ccc(Cl)c2s1	22	113	-6	i	1.1	1.4	108
Cc1c(C(=O)OC(C)C)[nH]c2c1C(=O)CC(C)(C)C2	30	122	-2	i	1.1	-1.4	99
COc1ccc(CCNC(=O)CSc2nnc(-c3ccccc3)c3ccccc23)cc1OC	.	.	1	i	1.1	0.3	94
O=C(NCCN1CCN(Cc2ccc([N+](=O)[O-])cc2)CC1)C(=O)Nc1ccccc1	42	66	-4	i	0.91	-1.2	99
N#Cc1ccc(Cn2c(=O)c(C#N)c3n(c2=O)CCC3)cc1	.	.	-5	i	0.95	-0.9	101
COc1ccc(OCC(=O)N2CCN(C(=O)c3cccs3)CC2)cc1	-9	125	-6	.	.	-1.3	105
COc1cccc(OC)c1NC(=O)c1nc2c(nnn2Cc2ccccc2Cl)c(=O)[nH]1	.	.	5	i	1	.	104
CCC(C)c1ccc(OCCn2ccnc2)cc1 (stereo unspecified)	33	94	-3	.	.	-0.5	96
COC(=O)c1ccc(Cn2cnc3c(cnn3-c3ccc(F)cc3)c2=O)o1	.	.	-1	i	0.98	-1.0	108
Nc1ccc2ncccc2c1	.	.	-2	i	1	-2.3	97
O=C(O)CCC(=O)N1CCc2cc(S(=O)(=O)N3CCCCC3)ccc21	.	.	0	i	0.89	0.3	104
CCc1ccc(NC(=O)CS(=O)CC(=O)Nc2ccc(F)cc2F)cc1 (stereo unspecified)	.	.	4	i	0.98	-0.7	141
Additional records.
SMILES	Insulin prom inh	Insulin prom inh cell count	PKD1 inh	HSV replic up	HSV replic up primary fold	GALR2 agonist	RGS16-Gao HTS
COc1ccc(-c2[nH]nc3c2C2(C(=O)N(CC(=O)O)c4ccccc42)C(C#N)=C(N)O3)cc1OC (stereo unspecified)	.	.	3	i	1.1	-0.1	77
O=C(NNC(=O)c1cnccn1)c1cccc([N+](=O)[O-])c1	29	105	-6	i	0.84	-2.9	103
O=C(CSc1nnnn1-c1cccnc1)Nc1ccc(OCc2ccccc2)cc1	0	104	4	i	1	-1.4	97
COc1ccc(-n2c(=S)[nH]c3cc(C(=O)Nc4ccc(OC)c(OC)c4)ccc3c2=O)cc1	50	103	7	i	1	-2.2	105
CN(C)c1ccc(C(=O)NNC(=O)c2ccc(Cl)cc2)cc1	.	.	.	i	1.1	.	104
O=C(c1cc(-c2ccc(Cl)cc2)n(-c2ccc(Cl)cc2)n1)N1CCOCC1	16	140	-2	i	1	-0.8	106
COc1ccc(N(C)S(=O)(=O)c2c(C)[nH]c(=O)[nH]c2=O)c(OC)c1	.	.	11	i	1	-0.1	99
CCC(C)c1ccc(NC(=O)C2CC2)cc1 (stereo unspecified)	.	.	-1	i	0.96	-1.3	105
O=C(Cn1nnc(-c2ccc(CN3CCOCC3)cc2)n1)NC1CCCCC1	-41	110	-8	i	0.96	-1.7	102
COc1ccc(NC(=O)Nc2cc(C)cc(C)c2)cn1	.	.	.	i	1	.	93
COc1ccc(CCNC(=O)CN(C2CCCCC2)S(C)(=O)=O)cc1	46	83	4	i	0.84	-1.8	102
CCCOc1ccc(C(=O)N2CCCC2)cc1OC	-107	90	8	i	0.86	-2.2	108
O=C(O)[C@H](Cc1ccccc1)NC(=O)N1CCC(Cc2ccccc2)CC1	.	.	.	i	1.1	.	102
CC1CCCN(C(=S)NCc2ccccc2)C1 (stereo unspecified)	0	162	0	i	1.1	-1.1	96
O=C(Nc1ccc(F)cc1)c1ccc(S(=O)(=O)NCC2CCCO2)cc1 (stereo unspecified)	-64	66	-3	i	1.3	-1.6	106
O=c1c2ccccc2[nH]c(=S)n1CCc1ccccc1	.	.	3	i	1.1	0.1	93
O=C(N/N=C/c1c(O)ccc2ccccc12)c1[nH]ncc1Br	31	60	0	i	0.86	-0.5	122
c1ccc(Cc2nnc3sc(-c4ccccn4)nn23)cc1	71	190	1	i	0.97	-0.6	96
CCOC(=O)C1=C(C(F)(F)F)Nc2ncnn2C1c1ccc(OC)c(OC)c1OC (stereo unspecified)	43	131	-2	i	1	0.7	98
CC(=O)C(Cc1cnc(Cl)s1)(Cc1cnc(Cl)s1)C(C)=O	30	124	5	i	0.73	-1.3	94
